HSV augment – enhancers of HSV replication in host cells, fold increase, host cell viability; maximum fold increase; 220,000 tested, 0.005% active; HSV replication augmentation in cells;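 active = peak rise of 1.5-fold or more in the series; inconclusive = self-fluorescent or not available for retest; tested in PC3 cells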;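 note: first round at 10 µM; read as green reporter fluorescence; hits show the peak of a series up to 25 µM; 1 = signal of infected wells without compound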
RGS16-Gao – modulators of RGS16 binding to Galphao, primary screen, biochemical, human proteins, multiplexed bead flow cytometry. AID 1441, 2008. 220,000 tested, 0.38% active. binding response (% of control), % at 10 µM. bead-based flow cytometry RGS16-Galphao binding, fluorescence; actives lie on both sides. Regulator of G-protein signaling 16 (Homo sapiens) + Guanine nucleotide-binding protein …;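 active = below 25% or above 175%, edge rows of some plates excepted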;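 note: Galphao activated by GDP with aluminum fluoride before binding; 100% = wells without compound and 0% = beads without RGS; some results beyond the cut were filed as inactive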
Target sequence (O15492 whole entry, looked up): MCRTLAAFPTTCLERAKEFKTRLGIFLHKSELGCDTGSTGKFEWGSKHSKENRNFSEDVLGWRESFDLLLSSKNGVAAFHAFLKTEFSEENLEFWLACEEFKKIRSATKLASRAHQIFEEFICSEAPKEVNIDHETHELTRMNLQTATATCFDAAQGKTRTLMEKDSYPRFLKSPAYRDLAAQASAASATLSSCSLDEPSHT
Target sequence (P09471 whole entry, looked up): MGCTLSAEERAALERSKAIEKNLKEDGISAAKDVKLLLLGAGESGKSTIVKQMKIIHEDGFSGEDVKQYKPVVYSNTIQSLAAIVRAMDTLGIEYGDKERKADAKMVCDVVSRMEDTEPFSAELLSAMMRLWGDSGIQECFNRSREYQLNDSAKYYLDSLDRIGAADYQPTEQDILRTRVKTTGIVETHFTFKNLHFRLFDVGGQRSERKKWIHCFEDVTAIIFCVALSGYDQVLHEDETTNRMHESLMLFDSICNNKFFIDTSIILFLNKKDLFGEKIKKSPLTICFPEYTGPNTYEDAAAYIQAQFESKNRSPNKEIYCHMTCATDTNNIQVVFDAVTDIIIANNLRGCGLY
GALR2 ag – GALR2 receptor agonists, primary screen, cell-based; GALR2-expressing cells, agonist activation read-out; activation, %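 (tested at 5 µM)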; 140,000 tested, 0.48% active; AID 803, 2007;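 active = above mean plus 3 SD of all compounds, about 5% in these data, not always enough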;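 note: 0% = vehicle buffer wells and 100% = reference agonist at full effect; tested in CHO reporter cells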
Target sequence (O43603 whole entry, looked up): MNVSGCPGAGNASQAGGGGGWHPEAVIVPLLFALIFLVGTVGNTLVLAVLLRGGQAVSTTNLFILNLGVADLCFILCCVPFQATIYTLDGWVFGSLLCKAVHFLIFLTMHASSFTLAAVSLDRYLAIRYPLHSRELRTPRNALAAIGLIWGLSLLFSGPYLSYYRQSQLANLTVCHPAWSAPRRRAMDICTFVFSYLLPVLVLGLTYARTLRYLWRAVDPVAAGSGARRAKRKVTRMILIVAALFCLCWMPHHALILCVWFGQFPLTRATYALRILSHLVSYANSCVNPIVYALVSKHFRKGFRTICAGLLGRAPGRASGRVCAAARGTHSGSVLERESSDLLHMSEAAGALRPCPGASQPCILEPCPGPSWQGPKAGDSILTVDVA
PKD1 inh – inhibitors of human PKD1 kinase, biochemical, fluorescence polarization; 200,000 tested, 0.056% active; AID 797, 2007; inhibition, %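 (about 10 µM by stock and volumes)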; PKD1 kinase fluorescence polarization assay; Serine/threonine-protein kinase D1 (Homo sapiens), Q15139;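 active = inhibition of 50% or more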;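 note: controls were vehicle for no effect and a reference inhibitor for full effect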
Insulin prom inh – inhibitors of insulin promoter-driven GFP, primary screen, imaging, TRM-6 cells (human fetal islet line), eGFP reporter, cell count; inhibition, % at 2 µM; reporter expression induced with tamoxifen; 130,000 tested, 0.9% active;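 active = inhibition above the mean plus 3 SD, with well images judged a real hit on visual review, cut at about 60% in these data, passing the limit was not always enough; inconclusive = inhibition over the cutoff but images rejected on review; inactive = inhibition not above the cutoff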
Insulin prom inh cell count – second read-out of Insulin prom inh, no call of its own (marks repeat the call); normalized cell count, %; measured here: cell count, toxicity; reference of the scale not given here;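 cells exposed to compound for 48 h; stained nuclei by imaging scaled within each plate; lower means fewer cells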
HSV augment primary fold – further read-out of HSV augment, marked with its call; fold increase; compound at 10 µM; measured here: primary screen fold increase 10 uM; tested in PC3 cells;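 GFP signal in the first replicate; 1 = infected wells without compound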
Numbers without * were called inactive; i = inactive; ? = inconclusive; nt = no result given; [ ] = remark or other dose. Rows are unselected, and some 1.2% of all compounds hit somewhere here.

SMILES	HSV augment	HSV augment primary fold	RGS16-Gao	GALR2 ag	PKD1 inh	Insulin prom inh	Insulin prom inh cell count
CC(NC(=S)Nc1ccc([N+](=O)[O-])cc1)c1ccncc1 (stereo not drawn)	i	0.87	105	nt	3	nt	nt
CCCN1Cc2cccc(C(=O)Nc3cc(OC)cc(OC)c3)c2C1=O	i	1.2	91	-1.3	-7	-29	37
O=c1c2ccccc2nc2c3ccccc3c(NCCO)nn12	i	0.85	100	nt	2	-42	117
CC(=O)C1=C(O)C(=O)N(Cc2cccnc2)C1c1ccc(Cl)cc1 (stereo not drawn)	i	0.9	100	-1.2	-6	29	105
CC(Oc1ccc(Cl)cc1)C(=O)OCC(=O)Nc1ncc(Cl)cc1Cl (stereo not drawn)	i	1.1	77	-2.4	-8	nt	nt
CC1CCCCC1NC(=O)CCCc1nc2ccccc2c(=O)[nH]1 (stereo not drawn)	i	1	102	-1.8	-1	44	118
O=C(c1cccs1)N1CCN(Cc2ccc3c(c2)OCO3)CC1	i	0.98	105	-1.3	-6	22	111
Cc1ccc(-c2noc(CSc3nnnn3-c3ccccc3)n2)cc1	i	0.82	99	-3.0	-5	nt	nt
O=C(NCc1cccs1)c1nc2c(nnn2Cc2ccc(F)cc2)c(=O)[nH]1	i	1.4	104	-0.4	-1	35	144
NC(=O)C1(N2CCCCC2)CCN(C(=O)c2ccc(-n3cnnn3)cc2)CC1	i	0.93	117	-4.7	19	-36	121
CC(C)(C)CC(C)(C)NC(=O)CSCC(=O)Nc1ccc2ccccc2c1	i	1.1	57	-1.7	-5	-31	139
CCOC(=O)Nc1ccc2c(c1)N(C(=O)CCN1CCN(CCO)CC1)c1ccccc1CC2	i	0.72	106	-2.4	-1	-11	77
CCCCNC(=O)CS(=O)Cc1nc(-c2cccc(Cl)c2)oc1C (stereo not drawn)	i	1.1	101	-1.6	1	nt	nt
CCC(=O)Nc1ccc2c(c1)ncn2C	i	1	109	nt	-6	nt	nt
CCOC(=O)N1CCC(N(C(=O)Nc2ccc(CC)cc2)C(C)CC)CC1 (stereo not drawn)	i	1.1	99	-2.0	-10	46	111
CNC(=O)Cn1c(C)cc(=O)c2cccc(OC)c21	i	1	101	nt	nt	nt	nt
CCCCSc1nnc(-c2ccc(C)cc2)o1	i	0.97	103	-0.6	-15	33	104
CCOc1cc(/C=C/C(=O)OCC(=O)NC2CCS(=O)(=O)C2)ccc1OCc1ccccc1 (stereo not drawn)	i	1	100	nt	-1	43	71
CC(=O)c1ccc(Cc2cnc(N)s2)cc1	i	1.1	104	-3.7	-5	-14	215
O=C(O)C1CC=CCC1C(=O)Nc1ccccc1Cl (stereo not drawn)	i	0.79	100	-0.8	1	15	127
O=C(Nc1ccccc1-c1ccccc1)c1cccs1	i	0.99	96	nt	4	nt	nt
COc1ccccc1NC(=O)C1CCCN1C(=O)NCc1ccccc1 (stereo not drawn)	i	0.8	95	0.4	-5	nt	nt
Cc1c(NC(=S)NC(=O)c2sc3ccccc3c2Cl)cccc1C(=O)O	i	1	103	nt	-8	nt	nt
Cc1cc(C)n(-c2nc(NCC(C)O)c3c4c(sc3n2)COC(C)(C)C4)n1 (stereo not drawn)	i	0.93	97	-1.1	-11	-26	130
CCOC(NC(=O)c1ccccc1)C(NC(=O)c1ccccc1)OCC (stereo not drawn)	i	0.83	105	-2.9	-2	-5	123

Reformatted: 5 of the compounds above
Below each compound – HSV augment, HSV augment primary fold, RGS16-Gao, GALR2 ag, PKD1 inh, Insulin prom inh, Insulin prom inh cell count
O=C(O)C1CC=CCC1C(=O)Nc1ccccc1Cl (stereo not drawn)
→ i, 0.79, 100, -0.8, 1, 15, 127
O=C(Nc1ccccc1-c1ccccc1)c1cccs1
→ i, 0.99, 96, nt, 4, nt, nt
COc1ccccc1NC(=O)C1CCCN1C(=O)NCc1ccccc1 (stereo not drawn)
→ i, 0.8, 95, 0.4, -5, nt, nt
Cc1c(NC(=S)NC(=O)c2sc3ccccc3c2Cl)cccc1C(=O)O
→ i, 1, 103, nt, -8, nt, nt
Cc1cc(C)n(-c2nc(NCC(C)O)c3c4c(sc3n2)COC(C)(C)C4)n1 (stereo not drawn)
→ i, 0.93, 97, -1.1, -11, -26, 130

Carrying on.
SMILES	HSV augment	HSV augment primary fold	RGS16-Gao	GALR2 ag	PKD1 inh	Insulin prom inh	Insulin prom inh cell count
O=C(CCc1nc2ccccc2s1)N1CCN(S(=O)(=O)c2cccs2)CC1	i	0.9	102	-1.6	-8	-48	105
Clc1ccc2c(c1)c1cc(Cl)ccc1n2CN1CCOCC1	i	0.84	111	0.7	3	-24	142
Cc1cc(C(=O)COc2nncc3ccccc23)c(C)n1C	i	1.1	82	-1.6	-3	nt	nt
CCOC(=O)c1c(C)nc(SCC(N)=O)c(C#N)c1-c1ccccc1	i	0.95	182*[activator]	-1.1	-9	-43	69
COc1ccc2c(CC(=O)NCc3ccc4c(c3)OCO4)coc2c1	i	0.83	99	-1.9	8	nt	nt
O=C(Cc1ccccc1)N/N=C/C=C/c1ccccc1[N+](=O)[O-]	i	1.1	103	nt	nt	nt	nt
COc1ccc(/C=N/NC(=O)c2cccnc2)cc1CSc1ccccn1	i	0.74	108	nt	nt	nt	nt
COc1ccc(-c2nc(N)c(C#N)c(-c3cccnc3)c2C)cc1	i	0.96	96	nt	nt	nt	nt
CCNC(=S)Nc1cccc(NC(=O)c2ccccc2O)c1	i	1	102	nt	nt	nt	nt
Cc1ccc(NC(=S)NNC(=O)c2nn(C)c(C)c2Cl)cc1	nt	nt	99	-2.8	-3	18	101
Cc1ccc(N2C(N)=C(C#N)C(c3cccnc3)C3=C2CC(C)(C)CC3=O)cc1 (stereo not drawn)	i	0.81	103	-1.0	-6	-83	69
c1ccc2[nH]c(SCc3cscn3)nc2c1	i	0.97	100	-1.4	-2	1	93
CC(C)CCNC(=O)NC(=O)COC(=O)/C=C/c1cccc([N+](=O)[O-])c1	i	0.95	97	nt	4	nt	nt
Cc1cc(N2CCN(C)CC2)nc2ccc(NC(=O)CCC(=O)NCCC3=CCCCC3)cc12	nt	nt	nt	-1.0	-10	4	108
CN1C(=S)NC(C)(C)CC1(C)c1ccc(O)cc1O (stereo not drawn)	i	0.91	103	-0.9	-7	19	95
CCC1CCCCN1CCCNC(=O)CNC(=O)Cn1ccc2ccccc2c1=O (stereo not drawn)	nt	nt	110	-2.2	-5	-3	125
CS(=O)(=O)NN1C(=O)c2ccccc2NC1c1cc2ccccc2nc1Cl (stereo not drawn)	i	1.1	98	0.6	-5	-7	117
Cc1c(N2C(=O)/C(=C\c3cccc4ccccc34)SC2=S)c(=O)n(-c2ccccc2)n1C	i	0.92	103	-2.1	-4	nt	nt
COc1ccc(C2=Nc3ccc(Br)cc3C(c3ccccc3)N2CC(=O)NN)cc1 (stereo not drawn)	i	0.8	88	-2.9	-2	-25	124
CCC(CC)NC(=O)CSc1nnc(-c2c[nH]c3ccccc23)o1	i	1.1	100	nt	-4	nt	nt
CCOc1cc(C2C(C(=O)N3CCOCC3)=C(C)NC3=C2C(=O)CCC3)ccc1O (stereo not drawn)	i	1	101	-2.4	0	7	78
CCN(CC)S(=O)(=O)c1cccc(-c2nnc(SC(C)C(N)=O)n2CCc2ccccc2)c1 (stereo not drawn)	i	0.9	104	-0.3	3	-3	99
OC(CNCc1ccccc1C(F)(F)F)C(F)(F)F (stereo not drawn)	i	1.1	105	nt	0	15	85
O=C(Nc1ccccc1)c1cc2c(=O)c3ccccc3oc2nc1C(F)(F)F	i	0.93	104	-0.1	9	33	130
Cc1ccc(C(=O)N(CC(=O)NC2CCCC2)c2ccccc2C)s1	i	0.99	100	nt	-3	nt	nt
Further records
SMILES	HSV augment	HSV augment primary fold	RGS16-Gao	GALR2 ag	PKD1 inh	Insulin prom inh	Insulin prom inh cell count
COc1cc(NC(=O)c2cnc(N)s2)cc(C(=O)Nc2cccc(C(F)(F)F)c2)c1	i	0.71	100	nt	nt	nt	nt
O=C(CSc1nnc(-c2ccncc2)n1-c1ccccc1Cl)Nc1ccc(C(=O)O)cc1	i	0.99	100	nt	-5	18	111
CC1(C)C(=O)Nc2ccccc2N1C(=O)CN1C(=O)C(=O)N(C2CCCC2)C1=O	i	0.91	99	nt	-1	nt	nt
CN=C(Nc1ccccc1)SC1CC(=O)N(c2ccc(C(=O)OC)cc2)C1=O (stereo not drawn)	i	0.87	104	-1.2	-5	nt	nt
CCC(C)(C(=O)NC1CCCCC1)N(Cc1ccco1)C(=O)CC1NC(=O)NC1=O (stereo not drawn)	i	0.98	99	-1.0	-12	nt	nt
O=C1c2ccccc2C(=O)C1(CO)c1ccccc1	i	0.96	90	nt	-14	35	98
NC(=O)C1CCN(S(=O)(=O)c2cccc(C(=O)O)c2)CC1	i	1	90	-2.3	-8	38	139
O=C(NC1CCS(=O)(=O)C1)c1cn(-c2ccccc2)nc1-c1ccccc1 (stereo not drawn)	i	1	101	-1.1	-4	nt	nt
COc1ccccc1CNC(=O)C1CCN(S(=O)(=O)c2ccc3c(c2)OCCCO3)CC1	i	1.1	102	0.3	-5	nt	nt
COC(=O)CC1NCCNC1=O (stereo not drawn)	i	0.73	103	-2.2	0	nt	nt
Cc1nc2ccccn2c1C(=O)NNC(=S)Nc1ccc(Cl)cc1	i	0.9	95	-0.8	5	33	167
Cc1oc(C)c2c(=O)ccc3c(c12)OC(N)=C(C#N)C3c1ccc(F)cc1 (stereo not drawn)	?	nt	125	-0.8	-9	-32	90
CCNC(=O)COC(=O)/C=C/c1c(C)nn(Cc2cccc(OC)c2)c1Cl	i	1.1	94	nt	-2	nt	nt
O=C(CN1C(=O)c2cccc3cccc(c23)C1=O)NCCN1CCOCC1	i	0.97	103	nt	2	nt	nt
COc1ccc2sc3c(=O)[nH]c4ccccc4c3c2c1	i	0.86	98	-2.7	0	nt	nt
Cc1ccnc(NS(=O)(=O)c2ccc(NC(=O)c3ccc([N+](=O)[O-])s3)cc2)n1	i	0.66	84	nt	2	-64	113
O=C(NC(=S)Nc1ccccc1)c1cc(-c2ccccc2)nc2ccccc12	?	nt	101	0.9	-12	nt	nt
Cc1ccccc1NC(=O)c1c(C)nn(-c2ccccc2)c1Cl	i	0.93	103	0.8	-4	54	113
COc1cccc(N=Cc2ccc(O)cc2O)c1	i	1.1	85	-1.5	13	3	94
CC(=O)c1ccccc1NS(=O)(=O)c1ccccc1Cl	i	0.91	99	nt	-5	24	124
O=C(Nc1ccccc1)c1cc(Cl)nc2ccccc12	i	0.89	117	0.3	3	22	105
Cn1c(=O)c(C(=O)NC2CCCCCCC2)c(O)c2ccccc21	i	0.98	8	-0.4	2	-6	77
CC(=O)Oc1c(S(=O)(=O)c2ccc(C)cc2)c(C)nn1C(C)(C)C	i	0.86	104	-3.4	-4	-15	102
O=C(Cc1c(F)cccc1Cl)Nc1cc(S(=O)(=O)N2CCCCC2)ccc1N1CCOCC1	i	0.96	97	nt	nt	nt	nt
CCN(CC)N=Nc1ccc(C(=O)O)cc1	i	0.98	212	-0.2	-10	15	93
Next part.
SMILES	HSV augment	HSV augment primary fold	RGS16-Gao	GALR2 ag	PKD1 inh	Insulin prom inh	Insulin prom inh cell count
CCOC(=O)c1c(/N=C/C2=C(O)CC(C)(C)CC2=O)sc2c1CCCC2	i	0.9	103	nt	nt	nt	nt
C=C(C)Cn1c(SCC(=O)N/N=C/c2c(O)ccc3ccccc23)nc2ccccc2c1=O	i	0.48	100	-1.3	-4	nt	nt
CC1=C(C(=O)OC2CCCCC2)C(c2cccnc2)n2nnnc2N1 (stereo not drawn)	i	0.97	101	-1.6	-2	12	132
CN1CCN(S(=O)(=O)c2ccc(Br)c3nsnc23)CC1	i	0.92	102	-3.1	5	46	112
Cc1[nH]c(=O)[nH]c(=O)c1NC(=O)c1ccc(OC(C)C)cc1	i	0.96	104	nt	5	nt	nt
N#CNC(N)=Nc1cccc(Cl)c1	i	0.95	96	-1.5	-4	-3	120
CC(=O)Nc1ccc(Nc2ncnc3ccccc23)cc1	i	0.89	103	nt	nt	nt	nt
COc1ccc(-c2noc(CN3CCOCC3)n2)cc1OC	i	1	100	-2.0	-2	19	161
CC1CN(C(=O)c2cc(F)c(F)cc2Cl)CC(C)O1 (stereo not drawn)	i	0.96	nt	-2.5	7	5	56
COc1ccc(Cc2c[nH]c(=O)[nH]c2=O)cc1	i	0.92	85	-0.9	-5	nt	nt
COC(=O)C1=C(C)Nc2c(c(=O)n(C)c(=O)n2C)C1c1ccc(C)cc1 (stereo not drawn)	i	0.96	106	nt	-8	9	49
COCCN(CCOC)c1nc(S(=O)(=O)c2ccc(C)cc2)c(Cl)s1	i	0.71	103	-3.0	-9	-114	129
